Screening data from PubChem.
AID504770 – growth inhibition of E. coli YBA685, primary screen, V. cholerae RctB inhibitors; E. coli YBA685 rctB-dependent plasmid, OD600 growth, 3 h; stronger effect = lower value; z-score (test concentration not listed); 0.27% of 130,000 active; AID 504770, 2011;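 active = z-score under -2 on both plates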;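 also: wells of about 30 µL received 100 nL stock; score is relative to mean and SD of the test wells; the first replicate is given; strong numbers were not always called active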
CapD inh – Bacillus anthracis CapD inhibitors, primary screen, biochemical, fluorescence intensity; purified CapD enzyme, fluorescence intensity read-out; stronger effect = lower value; some hits fall short of the stated cut; z-score (concentration not given with the values); 0.23% of 140,000 active; AID 492967, 2010;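 active = z-score under -4 in either of two replicates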;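 also: stock transfer was 100 nL into about 40 µL; score is relative to mean and spread of the plate; one replicate is shown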
Active calls of the source: *; nt = no result given; & = joins results of further samples.

SMILES	AID504770	CapD inh
CC(C)(C)c1cc(C(F)(F)F)c2c(=O)n(-c3ccccc3)[nH]c2n1	-0.7	nt
COc1ccc(C(Cc2cnc3ccccc3n2)Oc2nc(C)cc(C)n2)cc1 (centres undefined)	nt	-0.65
COc1ccc(Sc2nnc(Cc3ccccc3)c3ccccc23)cc1	nt	-0.42
COCCn1c(C)cc(C(=O)CSc2nnc(C)s2)c1C	0.35	-1.3
NC(=O)c1cc2cc(Cl)cc(Cl)c2oc1=Nc1ccc(C(F)(F)F)cc1	nt	0.235
CCOC(=O)c1ccsc1NC(=O)CC	-0.35	-0.75
COc1ccc(/C=C2/C(=N)N3C(SC)=NSC3=NC2=O)cc1	0.65	-0.13
NC(=O)NC(CC(=O)O)c1ccc(Cl)cc1 (centres undefined)	-1.05	nt
O=C(CSCc1cnn(-c2ccccc2)c1-n1cccc1)NCC1CCCO1 (centres undefined)	0.45	0.86
CC1(C)c2ssc(=S)c2-c2ccccc2N1C(=O)CSC#N	-0.35	nt
Cc1cccc(-c2nc(CN3CCCCC3)c(C)o2)c1	-0.65	0.09
CCOC(=O)c1ccc(N2C(=O)C3C(c4cccc(Cl)c4Cl)OC4(C(=O)c5ccccc5C4=O)C3C2=O)cc1 (centres undefined)	nt	0.02
CSc1ccc(/C=N/NC(=O)c2csc(CS(=O)(=O)Cc3ccco3)n2)cc1	nt	7.83
COC(=O)c1ccc(N2C(=O)C3C4c5ccccc5C(c5ccccc54)C3C2=O)cc1 (centres undefined)	nt	-0.37
Nc1nc(N)c(Cc2ccccc2)cc1Cc1ccccc1	0.15	12.6
CC1(C)CCc2cc(-c3ccnc(=S)[nH]3)ccc2O1	-0.55	0.735
CCOC(=O)C1=C(C)NC(SC(C)=O)=NC1c1ccc(OC(C)=O)c(OC)c1 (centres undefined)	-0.8	-1.4
O=C(NN1C(=O)c2ccccc2NC1c1cccnc1)c1ccccc1 (centres undefined)	2.2	12.4
CCn1c(NC(=O)c2ccccc2)nc2ccccc21	-0.1	1.37
CC(=O)NC(C)c1ccc(-c2csc(N)n2)cc1 (centres undefined)	1.1	nt
CN(C)C(=O)Cn1c(SCC(=O)NC2CCCCC2)nc2ccccc21	-0.45	nt
CCN1C(=O)/C(=C2/Sc3ccccc3N2CC)SC1=S	1.4	0.345
COc1ccc(CCNC(=O)CSc2nc3ccccc3c(=O)n2NC(=O)Cc2ccccc2)cc1OC	nt	0.49
Cc1c(C)c(C)c(S(=O)(=O)NCCCN2CCOCC2)c(C)c1C	1.65	0.335
COc1ccc(C(=O)n2c(-c3ccco3)nc3ccccc32)cc1	1.45	-0.095

Sorted by SMILES length (highest first): part of the list above
SMILES	AID504770	CapD inh
COc1ccc(CCNC(=O)CSc2nc3ccccc3c(=O)n2NC(=O)Cc2ccccc2)cc1OC	nt	0.49
NC(=O)c1cc2cc(Cl)cc(Cl)c2oc1=Nc1ccc(C(F)(F)F)cc1	nt	0.235
COc1ccc(C(Cc2cnc3ccccc3n2)Oc2nc(C)cc(C)n2)cc1 (centres undefined)	nt	-0.65
CN(C)C(=O)Cn1c(SCC(=O)NC2CCCCC2)nc2ccccc21	-0.45	nt
Cc1cccc(-c2nc(CN3CCCCC3)c(C)o2)c1	-0.65	0.09
Nc1nc(N)c(Cc2ccccc2)cc1Cc1ccccc1	0.15	12.6
CCn1c(NC(=O)c2ccccc2)nc2ccccc21	-0.1	1.37

The list goes on:
SMILES	AID504770	CapD inh
O=C(CSc1nccc(-c2cccnc2)n1)Nc1ccccc1	0.45	-0.87
NS(=O)(=O)c1cc([N+](=O)[O-])c(N2CCN(C(=O)OCCN3CCN(Cc4ccc(Oc5ccccc5)cc4)CC3)CC2)s1	nt	-1.25
COc1ccccc1N1CCN(Cc2cc(Br)c(O)c3ncccc23)CC1	nt	-0.215
Cc1ccc(NC(=O)CC(NCCC2=CCCCC2)C(=O)O)c(C)c1 (centres undefined)	0.2	-0.125
O=C(c1ccc(Cl)cc1)c1c[nH]c2ccccc2c1=O	-1.2	-0.59
CCOC(=O)c1noc(C)c1-c1csc(N)n1	-0.7	0.28
CCN1CCN(Cc2c(O)ccc3c(=O)c(Oc4ccccc4Br)c(C(F)(F)F)oc23)CC1	nt	0.415
COC(=O)C1=CNC=C(C(=O)OC)C1c1ccccc1C	-0.7	77.9
O=C(/C=C/c1cccc(C(F)(F)F)c1)NCc1cn2ccccc2n1	-0.6	0.525
Cc1cc2c(=O)n(CC(=O)NCC(=O)N3CCCCC3)cnc2s1	-0.8	-0.295
CCc1c(C)sc(NC(=S)N2CCN(S(C)(=O)=O)CC2)c1C(=O)OC	0.3	0.53
Cc1cn2c(n1)-c1ccccc1C2	nt	-0.54
C1CCC(c2nnc3n2N=C2CCCCC2S3)CC1 (centres undefined)	-0.05	nt
CCCC(C)C(=O)N1CCCCC1CC (centres undefined)	-0.1	0.41
CC(=O)NC1=C(c2ccccc2)C(=O)c2ccccc2C1=O	0.5	nt
Nc1c(-c2ccc(Cl)cc2)cnn1-c1nc(-c2ccccc2F)cs1	nt	0.17
CCCN(C(=O)CCc1nc(-c2ccccc2F)no1)c1ccccc1C	-0.2	-0.135
N#C/C(=C(/Oc1ccc(C#N)cc1)C(F)(F)F)c1ccccc1	-0.65	0.29
C=CCSc1nnc(OC(=O)N(C)C)n1-c1ccc(Cl)cc1	-0.35	0.505
CCOC(=O)C1=C(N)Oc2ccc(Cl)cc2C1C(C#N)C(=O)OCC (centres undefined)	0.05	5.68
CCOc1ccc2c(=O)c(Oc3ccccc3)c(C)oc2c1C	-0.65	0.235
COc1cccc(/C=C2\C(=O)NC(=O)N(C)C2=O)c1	-0.8	0.015
O=C1/C(=C/c2ccc(-c3ccc(Br)cc3)o2)C=C(c2ccccc2)N1c1ccccc1Br	nt	2.71
CC(C)C(C)NC(=O)CSc1nc2ccccc2n1C (centres undefined)	1.45	nt
Cn1cnc([N+](=O)[O-])c1Sc1ncnc2nc[nH]c12	0.1	76.5&-0.765&0.02

(more compounds)
SMILES	AID504770	CapD inh
N#Cc1cc2c(nc1SCc1ccccc1Br)C1CCN2CC1	0.7	8.53
O=C(CN1CCCCCC1)N1c2ccccc2Sc2ccc(C(F)(F)F)cc21	nt	0.095
CCCCN(CCCC)CC(O)CN(c1ccccc1)S(=O)(=O)c1ccc(C)cc1 (centres undefined)	nt	-0.97
CC(C)C(Sc1nnc(C(F)(F)F)n1C)C(=O)NC(N)=O (centres undefined)	0.25	nt
COc1ccc(NC(=O)c2ccc(Br)o2)cc1	-2.2	-0.295
CCCc1cc(=O)oc2c(CN3CCOCC3)c(O)ccc12	-0.15	70.1
COc1ccc(CC(=O)N2CC(=O)N(CCc3ccccc3)C(=O)C2)cc1	-0.8	0.29
CCCc1nn(-c2ccc(Cl)cc2)cc1C(=O)Nc1ccc(Cl)cc1	0.25	0.165
CC1=C(C(=O)OCC2CCCO2)C(c2cc(Br)ccc2F)C2=C(CC(c3cccs3)CC2=O)N1 (centres undefined)	nt	43.8
Nc1ccc(Oc2ccc3c(c2)C(=O)N(Cc2ccco2)C3=O)cc1	-0.4	-0.46
O=C1N(Cc2ccccc2)c2cccc3cccc(c23)N1Cc1ccccc1	-0.15	0.74
COc1cc2c(cc1OC)C(=NC(Cc1c[nH]c3ccccc13)C(=O)O)NC(C)(C)C2 (centres undefined)	nt	0.165
c1ccc(-c2nc(NCc3cccnc3)c3ccccc3n2)cc1	1.2	0.155
CC1=C/C(=N\NC(=O)c2ccccc2)CC1	-1.05	nt
CCCCN(CC)C(=O)c1sc2ncn(CC(=O)N(CC)CC)c(=O)c2c1C	0.5	-0.21
COc1ccc(CC(=O)OCc2nnc(C3COc4ccccc4O3)o2)cc1OC (centres undefined)	-0.35	nt
CC(C)(C)c1cc(N=Cc2ccc(O)cc2)c(C#N)s1	1.1	-0.88
CSc1ncccc1C(=O)OCC(=O)N1CCCc2ccccc21	1.2	nt
NCC1CCN(S(=O)(=O)c2ccccc2)CC1	-0.7	-0.02
CN(C)S(=O)(=O)c1ccc(NC(=O)C2CCCCC2)cc1	0.55	0.6
CC1N=C(c2ccccc2)c2ccccc2N(CCCOc2ccc(F)cc2)C1=O (centres undefined)	-0.25	-0.085
O=C(CCOc1ccccc1F)Nc1ccc2c(c1)OCO2	-0.35	nt
N#Cc1cc2c(=O)c3ccccc3oc2nc1-c1cc2ccccc2o1	-0.1	nt
CC1(C)CC(=O)C2=C(C1)c1c(ccc3ccccc13)NC2c1cccc(OCc2ccccc2F)c1 (centres undefined)	nt	-0.2
CC1CN(S(=O)(=O)c2ccc3c4c(cccc24)C(=O)N3)CC(C)O1 (centres undefined)	0.15	0.35

Other entries.
SMILES	AID504770	CapD inh
Cc1nc(NCC2CCCO2)c2c3c(sc2n1)CCC3 (centres undefined)	-0.6	nt
Oc1c(N=Nc2ccccc2)c2ccccc2n1Cc1cccc(C(F)(F)F)c1	nt	-0.955
O=c1c2sc(-c3ccccc3)cc2[nH]c(=S)n1CCN1CCOCC1	-0.25	nt
CCOC(=O)C1=C(CSc2nc3sc4c(c3c(=O)n2C)CCC4)NC(=O)NC1C (centres undefined)	-0.45	nt
COc1ccc(-n2cnc3c2C(=O)c2ccccc2C3=O)cc1	1.2	0.39
Cc1cc(NC(=O)C2Cc3ccccc3C(=O)O2)no1 (centres undefined)	-0.4	nt
O=S(=O)(/C=C/c1ccccc1)NC12CC3CC(CC(C3)C1)C2	0.9	-0.825
C=CCNC(=O)c1cc2ccccc2o1	0.35	0.105
O=C(Nc1cc(C(=O)N2CC=C(c3ccccc3)CC2)ccc1N1CC2CC(C1)c1cccc(=O)n1C2)c1ccncc1 (centres undefined)	nt	0.245
N#CN=C1CCCCCN1CC(N)=O	2.2	-0.425
CCCCNS(=O)(=O)c1ccccc1F	-2.6	nt
O=C(COc1ccc(Cl)cc1)N1CCCc2ccccc21	-0.1	0.425
Cc1nc2n(n1)C(C(=O)NCCc1ccccc1)CC(=O)N2 (centres undefined)	-0.1	nt
CCOC(=O)CSc1nc2cc(C(=O)OC)ccc2c(=O)n1Cc1ccc2c(c1)OCO2	nt	-0.46
Cc1ccc(Nc2cc(C(=O)NCC3CCCO3)c3ccccc3n2)cc1C (centres undefined)	-0.75	-0.29
CC1CCCC/C1=N\NC(=S)Nc1ccccc1 (centres undefined)	-1.15	nt
CC(C)NC(=O)c1cc2c(=O)c3ccccc3oc2nc1C(F)(F)F	nt	0.16
CN1C(=O)C2C(c3cccc(Br)c3)C(C#N)=C(N)OC2N(C)C1=O (centres undefined)	0.6	0.895
CCOc1ccsc1C(=O)NNC(=O)OC/C=C(/C)CCC=C(C)C	nt	-0.46
O=C(c1ccccc1Nc1ccc(SC(F)F)cc1)N(CCO)CCO	1.35	nt
Cc1cc(N2C(=O)NC(=O)/C(=C/c3ccccc3Cl)C2=O)ccc1Br	nt	-0.165
CC1(C)CC(=O)c2sc(N)nc2C1	0.45	-0.865
Cc1nc2c(-c3ccc(Cl)cc3)c(C(F)(F)F)[nH]n2c(=O)c1Cc1ccccc1	0.55	-0.025
CC(C)c1ccc(NC(=O)c2cc3n(n2)C(C(F)(F)F)CC(c2ccco2)N3)cc1 (centres undefined)	2.8	-0.07
Cc1c(C(=O)NCc2ccco2)sc2ncnc(N3CCOCC3)c12	nt	-0.09

An excerpt of these results, bar-delimited.
SMILES | AID504770 | CapD inh
CC1(C)CC(=O)c2sc(N)nc2C1 | 0.45 | -0.865
CC(C)NC(=O)c1cc2c(=O)c3ccccc3oc2nc1C(F)(F)F | nt | 0.16
O=c1c2sc(-c3ccccc3)cc2[nH]c(=S)n1CCN1CCOCC1 | -0.25 | nt

Rows are unselected. About 0.41% of those tested had a hit in this group.
